Cruzain inh Det: blocks cruzain activity in presence of Triton detergent. P25779. purified cruzain, Z-FR-AMC fluorescence, 0.01% Triton. Potency, µM, for inactives: max response, negative = inhibition, most hits filed as inhibitors. actives 0.43% (n = 200,000). AID 1478;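 note: plate controls were neutral wells for no effect and buffer without enzyme for full effect; nearly all actives have a fitted effect of over 40% in size; top concentration of the series not given in the record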
Target sequence (P25779 123-467 limits assumed): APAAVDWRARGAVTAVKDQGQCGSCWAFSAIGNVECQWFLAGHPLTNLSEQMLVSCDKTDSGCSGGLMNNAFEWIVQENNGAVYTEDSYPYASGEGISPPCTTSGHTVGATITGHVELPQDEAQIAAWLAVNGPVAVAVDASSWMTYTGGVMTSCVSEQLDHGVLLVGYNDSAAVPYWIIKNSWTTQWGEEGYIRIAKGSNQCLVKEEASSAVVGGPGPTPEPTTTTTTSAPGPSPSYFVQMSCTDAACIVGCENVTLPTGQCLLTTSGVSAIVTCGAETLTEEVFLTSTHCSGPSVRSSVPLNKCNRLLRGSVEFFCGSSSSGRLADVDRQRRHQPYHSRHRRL
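Compounds were screened in titration against cruzain (1.5 nM) with 0.01% Triton X-100 to counter colloidal aggregation. Activity was the AMC fluorescence increase over 60 s after adding 2 uM Z-FR-AMC at pH 5.5.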
NS1 function inh: blocks influenza NS1 protein function | S. cerevisiae slowed by influenza A NS1, growth recovery by OD600 | Potency, µM (doses to about 46.1 µM), inactives show top-dose activity, positive = more growth | actives 0.4% (n = 270,000) | AID 2326; active means well fitted rising curve with a large enough effect; inconclusive means small, poorly fitted or top-dose-only effect; inactive means no such curve, though single readings can be large or run the other way; note: nearly all actives have a fitted effect of over 50% in size
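S. cerevisiae expressing influenza A NS1, grown in glucose, washed, then diluted 1:100 into pH 6.0 -URA galactose medium with 23 nl compound. Growth recovery read as OD600; NS1-free strain serves as control.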
Lassa entry inh: Lassa virus entry inhibition. Lassa virus pseudotype entry inhibition, cell reporter; control for the full effect not named in the record. Potency, µM (doses to about 37.9 µM), inactives show at the top dose activity change, negative = inhibition, most hits filed as inhibitors. actives 1.2% (n = 300,000); active means well fitted inhibition curve with a large enough effect; inconclusive means small, poorly fitted or top-dose-only effect, or effect the other way; inactive means flat fitted curve, though single readings scatter; tested in HEK293 cells; note: % is set by controls: 0 for no effect and ±100 for the full control effect; nearly all actives have a fitted effect of over 50% in size; luciferase read-out
Marburg entry inh: Marburg virus entry inhibition; actives 1.8% (n = 300,000); Potency, µM (top dose mostly 37.8 µM), without a hit: at the highest dose activity change, negative = inhibition, hits mostly inhibitors; Marburg virus pseudotyped entry inhibition, cell reporter; control for the full effect not named in the record; about a third of the inactives were read at about 46 µM; AID 540276; active = well fitted inhibition curve with a large enough effect; inconclusive = small, poorly fitted or top-dose-only effect, or effect the other way; inactive = flat fitted curve, though single readings scatter; tested in HEK293 cells; about a fifth of its hits are not listed in these tables; note: % is set by controls: 0 for no effect and ±100 for the full control effect; luciferase read-out
RE007 growth inh: less growth of the S. pombe RE007 Vpr strain; S. pombe RE007 Vpr strain, BacTiter-Glo ATP luminescence, 24 h; control for the full effect not named in the record; AID 651644; Potency, µM (titrated, usually from 92.2 µM), without a hit: top-dose activity change, negative = less growth; actives 0.21% (n = 360,000); active = well fitted falling curve with a large enough effect; inconclusive = small, poorly fitted or top-dose-only effect; inactive = no such curve, though single readings can be large or run the other way;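 note: % is set by controls: 0 for no effect and ±100 for the full control effect; nearly all actives have a fitted effect of over 50% in size; the assay follows cell death caused by Vpr and the record does not say whether a fall means rescue or toxicity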
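Fission yeast RE007 carrying one integrated HIV-1 vpr copy, seeded at OD 0.01 in PMG+AL medium with 23 nL pinned compound. Grown 24 h at 30 degrees; viability read by BacTiter-Glo luminescence after 5 min.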
Cruzain noTriton: blocks cruzain activity in detergent-free assay; P25779; purified cruzain, Z-FR-AMC fluorescence, no detergent; Potency, µM, without a hit: max response, negative = inhibition, usual class: inhibitors; actives 2.3% (n = 200,000); AID 1476;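 note: plate controls were enzyme without inhibitor for no effect and buffer without enzyme for full effect; nearly all actives have a fitted effect of over 40% in size; top concentration of the series not given in the record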
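Purified cruzain at 1.5 nM, pre-incubated 15 min with compound at room temperature in 100 mM sodium acetate pH 5.5, 5 mM DTT, 0.00005% Triton X-100. Reaction started with 2 uM Z-FR-AMC; AMC fluorescence increase over 60 s gives rate.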
2A StopGo: FMDV 2A StopGo reporter, luciferase signal; actives 1.2% (n = 410,000); Potency, µM (doses to about 57.9 µM), without a hit: top-dose signal change, negative = less light; human cells with a luciferase reporter of 2A StopGo recoding; control for the full effect not named in the record; AID 1159524; active = well fitted falling curve with a large enough effect; inconclusive = small, poorly fitted or top-dose-only effect; inactive = no such curve, though single readings can be large or run the other way; tested in HEK293T cells; note: % is set by controls: 0 for no effect and ±100 for the full control effect; nearly all actives have a fitted effect of over 45% in size; luciferase light after 4 h
SARS PLP yeast: SARS-CoV PLP inhibition in yeast | S. cerevisiae expressing SARS-CoV PLpro, growth rescue; control for the full effect not named in the record | Potency, µM (doses to about 32.9 µM), for the others: top-dose activity, positive = growth rescue | actives 0.19% (n = 330,000) | AID 485353; active means well fitted rising curve with a large enough effect; inconclusive means small, poorly fitted or top-dose-only effect; inactive means no such curve, though single readings can be large or run the other way; note: 0% is about no effect; nearly all actives have a fitted effect of over 55% in size; growth read by luminescence after 48 h
* marks the source's active call; other numbers are inactive results; ? = inconclusive; / = no result given; & = joins results of further samples; [ ] = another dose, or the depositor's remark. Unless noted, calls come from the whole dose curve; as a rule, active = well fitted curve in the direction sought with a large enough effect; inconclusive = small, poorly fitted or top-dose-only effect, or another doubt; inactive = no such curve, though single readings can be large; an effect the other way counts as inactive or inconclusive. Potency is the fitted concentration of half-maximal effect.

SMILES	Cruzain inh Det	NS1 function inh	Lassa entry inh	Marburg entry inh	RE007 growth inh	Cruzain noTriton	2A StopGo	SARS PLP yeast
Cc1ccc(CNC(=O)C2(C)Oc3ccccc3NC2=O)cc1 (stereo unspecified)	1.6%	-9%	-10%	14%[46.1 µM]	13%	4%	25%	-4%
Cc1nc2cc(C(F)(F)F)ccc2n1CCNc1nc(-c2ccc([N+](=O)[O-])c(Cl)c2)cs1	/	-5%	/	/	-1%	/	?	-2%
CCn1nnnc1-c1ccc(OC)c(S(=O)(=O)NCc2ccccc2)c1	0.7%	-5%	12%	2%	7%	-2%	69%[activator]	-7%
Fc1ccccc1CCNc1nnnn1-c1ccccc1	0.0%	0%	-10%	-7%	-5%	6%	39%[activator]	-7%
O=C(Nc1ccccc1F)c1ccccc1-c1ccc(C(F)(F)F)cc1	-1.7%	-6%	-2%	-17%	8%	9%	-18%	-8%
COc1cccc(NC(C(=O)Nc2cccc(C(C)=O)c2)c2ccccc2)c1 (stereo unspecified)	-4.8%	19%	18%	7%	2%	?	11%	-2%
CCc1ccc(NC(=O)CN2C(=O)COc3ccc(S(=O)(=O)N4CCCC4)cc32)cc1	/	1%	/	/	-3%	/	-4%	10%
Cc1cc(=O)n2c(n1)SCOC2	/	7%	-3%	?	3%	/	3%	0%
N/C(=N\OC(=O)c1ccc(F)cc1)c1ccccc1	6.9%	-64%	24%	-3%	?	-12%	-55%	-15%
O=C(O)CCN1C(=O)/C(=C\c2cccc(OCc3ccccc3)c2)SC1=S	/	1%	12%	22%[46.1 µM]	10%	/	7%	2%
O=C(c1cc(-c2ccc(Cl)c(Cl)c2)on1)N1CCN(c2ccccc2)CC1	-1.4%	-2%	-6%	21%	-5%	5%	63%[activator]	3%
O=C(Cn1c(=O)c2cccn2c2ccccc21)NCc1ccccc1F	-11%	/	13%[46.1 µM]	/	/	-7%	-6%	/
CCc1ccc2c(COC(=O)c3n[nH]c4ccccc34)cc(=O)oc2c1	-11%	-17%	-21%	?	-13%	-15%	7%	12%
O=S(=O)(Cc1ccccc1Cl)NCc1ccccc1	/	/	15%	-3%[46.1 µM]	-2%	/	11%	-5%
Cc1ccc(Nc2nc(C)cc(C)n2)c(C(=O)O)c1	-3.6%	/	10%[46.1 µM]	/	/	13%	0%	/
Clc1ccc(C2=Nn3c(nnc3-c3cccnc3)SC2)s1	-5.8%	7%	4%	33%	36%	0%	19%	8%
Cc1nc(SCC(=O)Nc2ccnc3ccccc23)n[nH]1	4.6%	-2%	7%	18%	0%	-1%	?	5%
CC(C)NC(=O)C1CCC(Cn2c(=O)c3sccc3n(CC(=O)Nc3ccccc3)c2=O)CC1 (stereo unspecified)	-0.8%	/	19%[46.1 µM]	/	/	18%	-6%	/
CC(=O)N1CCN(C(=O)c2cc(-c3ccc(Cl)s3)nc3ccccc23)CC1	/	/	0%	-1%[46.1 µM]	-20%	/	10%	0%
COc1ccc(N2C(=O)CC(N3CCC(O)(c4ccc(Br)cc4)CC3)C2=O)cc1 (stereo unspecified)	-1.2%	-241%	2%	?	32µM*	-2%	?	-48%
COc1cc(C2N(c3cc(C)on3)C(=O)C3CCCN32)cc(OC)c1OC (stereo unspecified)	5.5%	0%	16%	18%	9%	9%	22%	1%
NC(=O)Cn1c(=O)n(Cc2ccco2)c(=O)c2c3c(sc21)CCCCC3	-3.4%	20%	-1%	-8%&-8%	5%	7%	-23%	?
Cc1ccccc1OCc1nnc(SCC(=O)Nc2ccc3c(c2)OCO3)n1C	-2.7%	4%	-2%	0%	11%	5%	13%	-4%
CCOc1ccccc1NC(=O)CCn1nc(C)c(S(=O)(=O)N2CCCCC2)c1C	-0.6%	-17%	-15%&12%[46.1 µM]	?	1%	?	-7%&-10%	3%
Cc1ccc(C(=O)NC(=S)NNC(=O)COc2ccccc2C)cc1	/	4%	9%	22%[46.1 µM]	8%	/	-16%	2%
COC(=O)C1=C(N)c2c(F)cccc2C1(C#N)c1ccc(F)cc1 (stereo unspecified)	-11%	-2%	-7%	7%	11%	-10%	-22%	-3%
COc1ccc(-c2noc(-c3nnn(-c4cc(C)ccc4C)c3N)n2)cc1	-0.1%	/	?	/	/	-8%	19%	/
O=C1C(=O)N(C2CCCC2)C(=O)N1Cc1c(F)cccc1Cl	/	/	18%	-5%[46.1 µM]	22%	/	-17%	0%
O=C1C=Cc2ccccc2C1=O	-2.3%	20%	1%	-1%	/	-16%	/	?
Cc1cc(NS(=O)(=O)c2ccc(NC(=O)CSc3nc4ncc(Cl)cc4[nH]3)cc2)nc(C)n1	/	7%	/	/	-2%	/	29%	0%
O=C(CN1C(=O)C2CC=CCC2C1=O)Nc1nc2ccccc2[nH]1 (stereo unspecified)	3.9%	-2%	-1%	4%	6%	-8%	7%	2%
Cc1cc(C(=O)Nc2cccc(C)c2C)n(-c2ccccc2)n1	/	-3%	?	15%[46.1 µM]	-12%	/	31%[activator]	1%
COc1ccc(N2C(=O)CC(NCc3cccc(F)c3)C2=O)cc1 (stereo unspecified)	-2.8%	-3%	-3%	9%	-14%	6%	-6%	-7%
O=C(CO/N=C1\CCCc2nonc21)Nc1ccccc1Cl	0.3%	-2%	0%	-1%	-13%	-8%	19%	-19%
CCOC(=O)c1c(NC(=O)COc2ccc(Cl)cc2Cl)sc2c1CCCCC2	-2.3%	/	-29%[46.1 µM]	/	/	4%	-18%	/
CCOC(Cn1c(SCC(=O)Nc2cc(C)on2)nc2ccccc2c1=O)OCC	/	-6%	/	/	-3%	/	-23%	6%
CCCn1nnnc1NCc1ccccc1OCC	/	-14%	-6%[46.1 µM]	0%[46.1 µM]	5%	/	-9%	16%
CC(C)c1ccc(OCC(O)CN2CCN(c3ccc(F)cc3)CC2)cc1 (stereo unspecified)	-1.5%	/	-17%[46.1 µM]	/	/	7%	-27%	/
COc1ccc2nc3sc(C(=O)Nc4cc(Cl)c(OC)cc4OC)cc3cc2c1	-0.9%	/	18%[46.1 µM]	?	/	8%	-3%	/
CCn1c(-c2csc3c2CCCC3)n[nH]c1=S	-2.2%	-1%	2%	3%	25%	-8%	-18%	29%
O=S(=O)(NCc1ccccc1)c1ccc(S(=O)(=O)N(Cc2ccccn2)Cc2ccco2)cc1	2.4%	-1%	-9%	12%	-10%	-8%	/	5%
Cc1cccc(C)c1OCc1cc(C(=O)N2CCN3CCCC3C2)no1 (stereo unspecified)	/	7%	0%	15%	0%	/	14%	0%
Cc1cc(C(=O)O)ccc1-c1ccc(CO)o1	/	7%	28%[46.1 µM]	?	-13%	/	4%	0%
Cc1ccc(Nc2nc(Cl)c(C=O)s2)cc1Cl	/	/	/	?	-11%	/	22%	-3%
Cc1c(NC2=CC(=O)CC(C)(C)C2)ccc([N+](=O)[O-])c1C	-3.4%	6%	1%	-1%[46.1 µM]	7%	-8%	-25%	4%
Cc1nc2ccc(NC(=O)c3sccc3C)cc2s1	3.8%	-101%	?	-26%	?	-6%	-2%	-12%
O=C(O)c1cncc(C#CCC2CCCCC2)c1	/	-70%	3%	?	1%	/	74%[activator]	-4%
CCS(=O)(=O)N1CCCC(C(=O)NC2CCCCC2)C1 (stereo unspecified)	5.1%	-4%	14%	2%	-8%	-5%	4%	-15%
Cc1ccc2c(c1)C(c1ccc(F)cc1)N(C(=O)c1cccc(C(F)(F)F)c1)CC(=O)N2 (stereo unspecified)	-9.6%	/	-26%[46.1 µM]	?	/	13%	23%	/
Cc1ccc(/C=N/Nc2nc(C)cc(C)n2)cc1	/	-7%	?	-2%[46.1 µM]	19%	/	18%	0%
CCO[C@@H]1OC(C(=O)NCc2nc3ccccc3[nH]2)=C[C@H](C2CC2)[C@H]1CCCO	/	-1%	/	/	-4%	/	-17%	2%
N#Cc1ccccc1NC(=O)CN1CC=C(c2ccccc2)CC1	/	-2%	-1%	1%[46.1 µM]	0%	/	-3%	-5%
Cc1nn(-c2ccccc2)c(NC(=O)c2ccccc2)c1Br	/	?	7%[46.1 µM]	-18%[46.1 µM]	3%	/	-10%	2%
CC(C)(C)c1ccc(C(=O)NC2CCN(Cc3ccccc3)CC2)cc1	/	-3%	/	/	0%	/	?	-1%
Cc1ccc(S(=O)(=O)NCCC(=O)NC(C)CCc2ccccc2)cc1 (stereo unspecified)	/	/	-23%	1%[46.1 µM]	-6%	/	-7%	4%
O=C(Nc1ccc(Cl)cc1Cl)c1csc(-c2cccnc2)n1	/	6%	/	/	0%	/	57%[activator]	-1%
CC(C)CN(C(=O)c1ccco1)C1CCS(=O)(=O)C1 (stereo unspecified)	/	/	0%	2%	3%	/	-16%	-1%
CCOC(=O)CSc1ncc(-c2cccc(Cl)c2)cn1	-1.5%	18%	2%	1%	-22%	13%	1%	23%
CC(c1ccco1)N(C(=O)c1ccccc1NS(=O)(=O)c1ccc(Cl)cc1)c1ccccn1 (stereo unspecified)	-6.3%	2%	-20%	1%	1%	-1%	-9%	18%
C=CCOC(=O)C1=C[C@@H](c2coc3ccccc3c2=O)C[C@@H](OCc2ccc(CO)cc2)O1	/	-5%	/	/	-6%	/	-12%	-3%

Other records:
SMILES	Cruzain inh Det	NS1 function inh	Lassa entry inh	Marburg entry inh	RE007 growth inh	Cruzain noTriton	2A StopGo	SARS PLP yeast
CCOc1ccccc1C1Nc2ccccc2-c2nnc(SCc3ccccc3)nc2O1 (stereo unspecified)	-2.7%	/	1%[46.1 µM]	10%[46.1 µM]	/	-1%	1%	/
C=CCOc1c(Br)cc(C2NC(=O)NC(C)=C2C(C)=O)cc1OCC (stereo unspecified)	-3.4%	12%	-21%	-15%	-3%	-14%	-18%	-3%
O=C(c1ccncc1)N1CCN(C(=O)c2ccncc2)CC1	-2.2%	0%	-9%	4%	6%	-4%	-13%	-2%
COCCN(C(=O)CCc1nnc(Cc2c[nH]c3ccccc23)o1)C(C)C	/	11%	/	/	4%	/	-10%	4%
